Compound activity as filed in PubChem.
D2 ag: Beta-Arrestin HTS for Positive Allosteric Modulators of the Human D2 Dopamine Receptor: Agonists | D(2) dopamine receptor (Homo sapiens), P14416 | DiscoveRx PathHunter D2 beta-arrestin, luminescence, 90 min; 100% = 57 uM dopamine signal | activation, % (no concentration beside the values) | hit rate 0.084% among 360,000; in the data active = activation above about 40%; inconclusive = about 15% to 40%; inactive = below about 15%; further: compound concentration not given in the record; the text of the record calls up to 30% inactive
Target sequence (P14416 whole entry, looked up): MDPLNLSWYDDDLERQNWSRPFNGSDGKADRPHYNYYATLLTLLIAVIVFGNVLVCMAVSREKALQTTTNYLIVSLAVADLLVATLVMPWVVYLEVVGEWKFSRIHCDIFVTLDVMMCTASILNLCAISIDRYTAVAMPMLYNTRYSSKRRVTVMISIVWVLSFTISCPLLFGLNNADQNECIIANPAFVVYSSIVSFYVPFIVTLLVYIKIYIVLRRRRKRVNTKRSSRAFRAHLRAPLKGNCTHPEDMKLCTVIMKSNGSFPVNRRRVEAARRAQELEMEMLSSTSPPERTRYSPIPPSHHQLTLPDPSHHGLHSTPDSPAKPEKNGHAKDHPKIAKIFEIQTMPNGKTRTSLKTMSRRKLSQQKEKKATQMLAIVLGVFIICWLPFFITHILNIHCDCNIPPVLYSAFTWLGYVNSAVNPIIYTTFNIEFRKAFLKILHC
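Agonist mode: compounds alone added to overnight-plated D2 PathHunter cells for 90 min at 37 C, with 57 uM final dopamine (EC100) defining full response. Beta-arrestin recruitment detected by chemiluminescent reagent, read after 1 h at ambient temperature.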
D2 potentiator: Beta-Arrestin HTS for Positive Allosteric Modulators of the Human D2 Dopamine Receptor: Potentiators; D(2) dopamine receptor (Homo sapiens), P14416; potentiation, % (concentration not given with the values); DiscoveRx D2 beta-arrestin cells, luminescence, 90 min; 100% = 57 uM dopamine signal; hit rate 0.23% among 360,000; active = potentiation of 50% or more; inconclusive = 30% to 50%; inactive = 30% or less;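 further: compound concentration not given in the record; tested on top of an EC20 dose of dopamine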
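D2 cells co-treated with compound plus 50 nM dopamine (EC20) for 90 min at 37 deg C to detect potentiation. Beta-arrestin recruitment was read as enzyme-fragment luminescence after 1 h at ambient temperature. Full response was set by 57 uM dopamine.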
Six1-Eya2 inh: qHTS Assay for Inhibitors of the Six1/Eya2 Interaction; hit rate 0.56% among 360,000; activity change, % (no concentration beside the values); AID 651725, 2012; AlphaScreen GST-Six1/His-Eya2 binding, biochemical; hits give low values; control for the full effect not named in the record; in the data active = activity change below about -65%; inconclusive = about -30% to -65%; inactive = above about -30%; further: on the % scale 0 is the no-effect control and ±100 the full control effect; compound concentration not given in the record
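GST-Six1 + His-Eya2 (5X stock: 250/500 nM); Tris pH 8.0, 300 mM NaCl, 0.05% BSA, 0.02% Tween 20; GSH donor/Ni acceptor beads; 1 h 37 °C dark; AlphaScreen readout.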
TRPML1 agonist: qHTS for Agonists of the Human Mucolipin Transient Receptor Potential 1 (TRPML1); Mucolipin-1 (Homo sapiens), Q9GZU1; TRPML1-expressing cells, Ca2+ dye fluorescence, FDSS; host cell line not named in the record; reference of the full effect not given here; activation, % (test concentration not listed); hit rate 0.12% among 410,000; in the data active = activation above about 50%; inconclusive = about 30% to 50%; inactive = below about 30%; further: 0% is about no effect; the text of the record puts the active cut at 80%
Target sequence (Q9GZU1 whole entry, looked up): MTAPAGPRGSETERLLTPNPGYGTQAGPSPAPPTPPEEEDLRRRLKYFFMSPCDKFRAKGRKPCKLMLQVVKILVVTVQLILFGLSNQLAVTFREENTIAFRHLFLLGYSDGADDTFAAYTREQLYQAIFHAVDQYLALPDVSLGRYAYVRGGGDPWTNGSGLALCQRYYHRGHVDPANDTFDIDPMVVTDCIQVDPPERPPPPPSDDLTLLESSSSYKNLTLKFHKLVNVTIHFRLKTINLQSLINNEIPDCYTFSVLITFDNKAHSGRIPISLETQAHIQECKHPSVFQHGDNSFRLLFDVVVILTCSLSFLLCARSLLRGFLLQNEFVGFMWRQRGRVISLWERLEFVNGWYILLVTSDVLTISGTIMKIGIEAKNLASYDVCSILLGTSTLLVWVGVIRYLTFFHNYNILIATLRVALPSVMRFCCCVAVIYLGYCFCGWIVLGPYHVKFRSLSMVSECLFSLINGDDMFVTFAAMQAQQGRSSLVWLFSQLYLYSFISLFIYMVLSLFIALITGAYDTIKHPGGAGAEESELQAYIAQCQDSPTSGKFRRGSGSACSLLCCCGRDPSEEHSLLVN
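Tetracycline-induced TRPML1-DL cells are seeded and incubated overnight before loading with a no-wash Ca2+ dye and quencher. Agonist activity is taken from the 110 s fluorescence read following compound pin-transfer on an FDSS, before EC80 54-4 challenge.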
CtBP-E1A blk: qHTS Assay for Inhibitors of the CtBP/E1A Interaction. AlphaScreen GST-E1A/His-CtBP binding, 1536-well; hits give low values; control for the full effect not named in the record. hit rate 0.49% among 340,000. activity change, % (no concentration beside the values); in the data active means activity change below about -65%; inconclusive means about -30% to -65%; inactive means above about -30%; further: on the % scale 0 is the no-effect control and ±100 the full control effect; compound concentration not given in the record
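Protein mix (5X: 125 nM each GST-E1A, His-CtBP) was incubated with pinned compound 2 h at 37 deg C in dark, in 50 mM Tris pH 8.0 buffer with 300 mM NaCl. Glutathione donor and nickel acceptor beads followed; AlphaScreen signal read after 1 h.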
PINK1 expr mod: A Quantitative High throughput Screen to Identify Chemical Modulators of PINK1 Expression | PINK1 immunofluorescence, high-content cytometry, 24 h | Potency, µM (top dose mostly 76.6 µM), inactives show top-dose activation (PINK1 increase), actives largely listed as activators | hit rate 0.2% among 410,000; active = well fitted activation curve with a large enough effect; inconclusive = small, poorly fitted or top-dose-only effect; inactive = flat fitted curve, though single readings scatter; cell line not stated here;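 further: potency means the concentration at half of the fitted maximal effect; % of control where 0% means no effect; nearly all actives have a fitted effect of over 65% in size; a mitochondrial uncoupler was the plate control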
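Stable cell line, 250 cells/well, 12 h attachment; compounds pinned at 5 concentrations, 24 h; CCCP control. Fixed with nuclear dye, primary antibodies 12 h at 10 degrees C, secondary plus cell stain; laser-scanning cytometer read.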
Numbers without * were called inactive; ? = inconclusive; . = no result given; [ ] = dose if it differs, or a comment. An unsorted share of the library. About 1.3% of those tested had a hit in this group.

SMILES	D2 ag	D2 potentiator	Six1-Eya2 inh	TRPML1 agonist	CtBP-E1A blk	PINK1 expr mod
CC(C)OC(=O)C(C)Nc1n[nH]c(=S)[nH]c1=O (configuration not stated)	-2.1	-22	6	0.0	19	0.7%
C[C@H](NC(=O)c1ccccc1F)C(=O)N1CCC2(CC1)NCCc1[nH]cnc12	-2.6	-12	0	-0.5	-3	-0.5%
CC(C)(C)c1ccc(C(=O)c2c[nH]c(C(=O)NCc3cccs3)c2)cc1	-0.1	2	-4	-0.1	5	6.7%
CCN1/C(=C\C(C)=O)Sc2ccc(OC)cc21	1.1	-6	3	0.1	3	1.1%[38.3 µM]
COC(=O)[C@]1(Cc2ccccc2)N[C@H](CN(C)C(=O)Nc2ccc(OC)cc2)[C@@H]2C(=O)N(C)C(=O)[C@@H]21	-2.0	2	5	3.2	2	-0.1%
O=C(Nc1nc(=S)ss1)c1c(F)cccc1F	-4.1	-2	-1	0.1	8	1.1%
O=C(NCc1ccccn1)C(=O)Nc1nc(C23CC4CC(CC(C4)C2)C3)cs1	-5.9	-3	3	.	0	1.0%
COc1cccc(-n2c(SC3CCOC3=O)nc3ccccc3c2=O)c1 (configuration not stated)	-0.1	4	0	1.4	-2	-7.0%[38.3 µM]
CCN(c1cccc(C)c1)S(=O)(=O)c1cc(CN2C(=O)c3cccnc3C2=O)ccc1OC	7.3	3	-2	-0.7	-13	-1.8%
O=C(CN1C(=O)c2ccccc2S1(=O)=O)Nc1ccc(S(=O)(=O)N2CCCC2)cc1	-0.5	-10	-3	0.3	5	?
COc1ccc(C(=O)NCC2OCCc3ccccc32)cc1OC (configuration not stated)	-2.0	-8	10	1.2	0	0.8%
CCOC(=O)c1sc2nc(C)nc(SCC(=O)N(CC)C3CCS(=O)(=O)C3)c2c1C (configuration not stated)	-0.2	1	3	1.5	9	1.8%
COc1ccc(CNC(=O)CN2C(=O)C3C4C=CC(C4)C3C2=O)cc1 (configuration not stated)	0.0	2	10	0.2	5	0.7%
CC(=O)C1C(c2ccc([N+](=O)[O-])cc2)C2C(C)=NN=C2CC1(C)O (configuration not stated)	-5.0	-8	4	-0.6	11	-0.4%
C#CCOCCOCCOCCNc1nc(N2CCN(C(=O)CCCCCCCCCCNC(=O)Cn3cc(CCCCCN)nn3)CC2)nc(N2CCN(C(=O)CCCCCCCCCCNC(=O)[C@@H](CCSC)n3cc(CCO)nn3)CC2)n1	-1.1	-8	-17	0.4	?	-1.4%
CC1(C)NC(=O)N(CC(O)COc2ccc(-c3ccc(C#N)cc3)cc2)C1=O (configuration not stated)	-0.8	9	-3	-0.8	1	2.9%
COc1cc(NC(=O)Nc2nc(C(N)CCc3ccccc3)cs2)cc(OC)c1OC (configuration not stated)	11	-9	-14	-0.2	0	-1.0%
O=C(OCCCC(=O)N1CCOCC1)c1ccccc1	2.7	4	1	-0.6	-1	-1.3%
CCCS(=O)(=O)NC(=O)C1(C)CCN(C(=O)c2ccc3ccccc3c2)C1 (configuration not stated)	-5.4	-1	12	-0.2	3	3.0%
CCOC(=O)C1(CCc2ccccc2)CCN(Cc2cnc(N(C)C)s2)CC1	0.9	-16	-5	1.7	-14	0.2%

Sorted by value in PINK1 expr mod (smallest number first): 3 from the list above.
SMILES	PINK1 expr mod
CCN(c1cccc(C)c1)S(=O)(=O)c1cc(CN2C(=O)c3cccnc3C2=O)ccc1OC	-1.8%
C[C@H](NC(=O)c1ccccc1F)C(=O)N1CCC2(CC1)NCCc1[nH]cnc12	-0.5%
CCOC(=O)c1sc2nc(C)nc(SCC(=O)N(CC)C3CCS(=O)(=O)C3)c2c1C (configuration not stated)	1.8%

The results go on.
SMILES	D2 ag	D2 potentiator	Six1-Eya2 inh	TRPML1 agonist	CtBP-E1A blk	PINK1 expr mod
S=C(N=Nc1ccccc1)NNc1ccccc1	-3.4	-16	-8	-1.0	?	1.3%
CC(OC(=O)/C=C/c1cccc(F)c1)C(=O)NC1CCCCC1C (configuration not stated)	2.3	-1	2	0.3	-1	0.5%
COc1ccc(CCNC(=O)CCNC(=O)c2ccccc2Cl)cc1	-15	1	-9	-1.0	-13	-0.2%
CCCC(=O)N1CCCC1(C)C(=O)Nc1ccc(-n2cccc2)cc1 (configuration not stated)	-0.5	-5	-4	-0.6	-2	1.1%
COCCNC(=O)[C@H](CSCc1ccccc1)N1Cc2ccccc2C1=O	-5.8	-14	3	-0.1	.	1.7%
O=C(NCc1ccccn1)c1ccc(COc2ccc(Cl)cc2)o1	-2.0	6	-13	0.2	-18	.
Cc1cccc(NS(=O)(=O)c2cccc3nonc23)c1	-2.8	0	-2	0.6	-1	-1.0%
Cc1cc(OCc2cc(C(=O)NC3CCC3)no2)cc(C)c1Cl	2.1	-2	9	2.8	.	-0.1%
COCCNC(=O)/C(C#N)=C/c1cn(CC(=O)NCc2ccco2)c2ccccc12	2.1	-3	-4	-1.0	1	14%
COc1ccc(NC(=O)C(=O)NCCN2CCN(C(=O)c3cccs3)CC2)cc1	1.0	-18	-4	-0.2	0	-1.6%
COC(=O)[C@H](Cc1ccccc1)NC(=O)C1CCN(C(=O)[C@H](C)NS(=O)(=O)c2ccc(C)cc2)CC1	4.0	-2	1	-1.1	1	-0.1%
CS(=O)(=O)Nc1ccccc1C(=O)NCCSc1ccc(Cl)cc1	-2.3	-25	2	-0.3	-1	?
Cc1nc(NC(=O)CSc2nc3cccnc3n2C2CCCCC2)sc1C	-0.3	-2	0	-0.2	0	8.4%
Cc1c(C(=O)NCc2cccc(Cl)c2)sc(=O)n1Cc1ccc(C(=O)N(C)C)cc1	5.9	-3	-22	-0.5	-17	2.6%
CC1CCN(C(=O)CN2C(=O)c3cccc4cccc(c34)C2=O)CC1	1.1	-6	2	-0.1	1	1.1%
COc1ccc(Cl)c2c1[nH]c1nc(SCc3ccccn3)nnc12	1.5	-17	-67*	2.8	?	0.3%
CNC(=O)COc1ccc(Cl)c2cccnc12	6.4	6	4	1.9	.	-0.5%
Cc1nn(Cc2ccccc2Cl)c(C)c1NC(=O)CCCn1nc(C)c([N+](=O)[O-])c1C	3.4	-12	-2	0.3	2	0.2%[38.3 µM]
CCOC(=O)Cn1cc(C#N)c(=O)[nH]c1=O	2.8	-2	-5	1.7	8	0.4%
Cc1ccccc1NS(=O)(=O)c1ccc(C(=O)N2CCCC(C(F)(F)F)C2)cc1 (configuration not stated)	-1.4	5	9	4.3	-27	1.7%

5 consecutive entries from above, quoted:
SMILES	D2 ag	D2 potentiator	Six1-Eya2 inh	TRPML1 agonist	CtBP-E1A blk	PINK1 expr mod
Cc1cccc(NS(=O)(=O)c2cccc3nonc23)c1	-2.8	0	-2	0.6	-1	-1.0%
Cc1cc(OCc2cc(C(=O)NC3CCC3)no2)cc(C)c1Cl	2.1	-2	9	2.8	.	-0.1%
COCCNC(=O)/C(C#N)=C/c1cn(CC(=O)NCc2ccco2)c2ccccc12	2.1	-3	-4	-1.0	1	14%
COc1ccc(NC(=O)C(=O)NCCN2CCN(C(=O)c3cccs3)CC2)cc1	1.0	-18	-4	-0.2	0	-1.6%
COC(=O)[C@H](Cc1ccccc1)NC(=O)C1CCN(C(=O)[C@H](C)NS(=O)(=O)c2ccc(C)cc2)CC1	4.0	-2	1	-1.1	1	-0.1%

Later entries
SMILES	D2 ag	D2 potentiator	Six1-Eya2 inh	TRPML1 agonist	CtBP-E1A blk	PINK1 expr mod
O=C(Nc1cccc(NC(=O)C2C3CC4OC(=O)C2C4C3)c1)c1ccccc1 (configuration not stated)	-6.4	-2	-21	-0.1	4	2.9%
COc1cccc(C(=O)NC(=S)Nc2ccc([N+](=O)[O-])cc2C)c1	-2.9	-3	-2	0.5	5	16%
O=C(Cn1cnc2c(OCc3ccccc3)ncnc21)N[C@H](CO)Cc1cc2ccccc2[nH]1	-2.8	2	8	-1.1	7	9.2%
CN(Cc1ccccc1)c1cc(Cl)nc(N)n1	6.6	-7	0	-0.2	-7	4.8%
COc1ccc(C(CNC(=O)c2cccc(S(=O)(=O)N3CCOCC3)c2)N2CCOCC2)cc1 (configuration not stated)	-2.0	-1	1	0.3	4	1.0%
COc1cc2c(c(OC)c1OC)-c1c(cc3c(c1OC)OCO3)C1OC2[C@@H](C)[C@H]1C (some centres not stated)	-0.6	-2	-4	1.4	-2	0.9%
COc1cccc(N/C(C)=C/C(=O)c2ccc(Br)cc2)c1	-3.7	-10	0	-0.3	11	1.4%
COc1ccc(/C=C(/NC(=O)c2ccc(OC)cc2)C(=O)NCCc2c[nH]c3ccccc23)cc1	-1.7	-15	-1	-0.6	-12	-1.4%
O=S(=O)(Cc1ccc(Cl)cc1)N1CCN(c2ncccn2)CC1	-1.2	22	4	0.3	3	0.4%
Cc1noc(/C=C/c2ccco2)c1S(=O)(=O)N1CCC(C(=O)NCc2ccco2)CC1	-1.5	-9	-1	0.3	2	-0.8%
Cc1cccc2c(C(=O)Nn3cnnc3)cc(-c3ccccc3Cl)nc12	-2.3	2	-13	-0.4	0	-1.0%
CCNC(=O)COC(=O)COc1ccc(Cl)cc1C	-3.0	-5	5	-0.9	1	1.0%
COc1ccc(-c2oc3ncnc(NCCCO)c3c2-c2ccc(OC)cc2)cc1	-1.0	11	-17	0.1	-5	-2.3%
COC(=O)c1ccc(CSc2ncnc3ccccc23)o1	0.2	-1	-8	-0.1	-2	0.3%
O=C(Nc1ccc(Cl)cc1)Nc1cc([N+](=O)[O-])ccc1F	0.2	-9	5	-0.2	-4	1.2%
CCOC(=O)c1cccc(NC(=O)CSc2nnnn2C)c1	0.0	-8	0	1.0	-9	-0.1%
CCOC(=O)C1CCN(Cc2nc3ccccc3c(=O)n2-c2ccc(F)cc2)CC1	-2.4	-12	6	0.0	0	-0.7%
COc1ccc(NS(=O)(=O)c2cccc(C(=O)NNC(=O)c3cccn3C)c2)cc1	13	-11	-24	-0.3	-4	0.5%
O=C(CCc1nnc(C2CCCCC2)o1)NCc1ccc(F)c(F)c1	-3.6	-10	9	-0.4	.	-2.3%
CCN(CC)S(=O)(=O)c1cc([N+](=O)[O-])ccc1N=Nc1c(O)n(C)c2ccccc12	0.2	1	-2	0.4	-8	24%
CCOC(=O)CC(=O)CSc1nc(-c2cccnc2)cc(C)c1C#N	-2.3	-5	-19	2.5	3	-2.1%
COc1ccccc1OCc1nc(C#N)c(N2CCC(C(N)=O)CC2)o1	-0.3	1	-3	-0.3	4	0.6%
CC(=O)Nc1ccccc1NC(=O)C/C(C)=N/NC(=O)C1CCCCC1	-3.5	-4	-3	-1.2	1	-1.6%
CCN1C(=O)C(CC(=O)Nc2ccc(OC)cc2)N(Cc2cccnc2)C1=S (configuration not stated)	-1.7	-13	-10	0.4	-7	4.4%[38.3 µM]
O=C(NCCCn1ccnc1)c1cc(Cl)cc(Cl)c1	-0.5	-5	4	-0.7	3	3.6%
Cc1ccc2nc(Nc3ccccc3O)nc(-c3ccccc3)c2c1	-0.5	-24	-13	2.2	2	11%[38.3 µM]
Cc1cc(C(=O)Nc2ccccc2N2CCCCC2)no1	3.9	-9	18	2.1	7	13%
